# KCNQ2 pot: enhances the rat KCNQ2 potassium channel. O88943. CHO-K1 KCNQ2, FluxOR thallium flux fluorescence; active compounds read high. B-score at 10 µM. 0.54% of 310,000 active. AID 2239;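 active = fluorescence ratio B-score at least 3 SD of library B-scores, with initial fluorescence B-score within 3 SD, cut at about 5.3 in these data; same plate scores as AID 2156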;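 also: B-score of peak minus minimum over baseline fluorescence ratio after K+ and Tl+ stimulus; positive B-score means potentiation of KCNQ2 with more thallium influx and brighter signal; only the inactives scoring about 0 or higher are listed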
# Target sequence (O88943 whole entry, looked up): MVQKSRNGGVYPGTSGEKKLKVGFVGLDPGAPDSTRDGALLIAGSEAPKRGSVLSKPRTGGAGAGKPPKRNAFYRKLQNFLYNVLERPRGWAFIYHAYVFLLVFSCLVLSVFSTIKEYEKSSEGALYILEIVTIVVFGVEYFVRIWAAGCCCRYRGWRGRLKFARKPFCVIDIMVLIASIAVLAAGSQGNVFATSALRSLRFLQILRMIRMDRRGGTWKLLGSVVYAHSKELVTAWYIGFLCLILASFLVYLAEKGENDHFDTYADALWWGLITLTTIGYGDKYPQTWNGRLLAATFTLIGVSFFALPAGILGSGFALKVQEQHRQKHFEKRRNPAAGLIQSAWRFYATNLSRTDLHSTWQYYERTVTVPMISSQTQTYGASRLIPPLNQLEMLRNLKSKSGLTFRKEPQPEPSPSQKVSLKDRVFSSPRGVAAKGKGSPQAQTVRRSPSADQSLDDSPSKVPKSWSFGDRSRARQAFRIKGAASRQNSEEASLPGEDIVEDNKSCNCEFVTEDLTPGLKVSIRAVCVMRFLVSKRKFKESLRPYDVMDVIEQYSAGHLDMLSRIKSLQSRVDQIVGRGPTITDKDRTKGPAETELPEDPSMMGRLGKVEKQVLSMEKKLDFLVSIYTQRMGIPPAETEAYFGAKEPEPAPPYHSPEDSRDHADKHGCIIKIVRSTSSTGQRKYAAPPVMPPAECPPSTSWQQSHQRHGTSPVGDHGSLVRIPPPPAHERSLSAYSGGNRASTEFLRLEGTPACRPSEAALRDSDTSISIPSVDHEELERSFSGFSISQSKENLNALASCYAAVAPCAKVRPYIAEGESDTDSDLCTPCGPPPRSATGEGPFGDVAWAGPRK
# KCNQ2 pot baseline: further read-out of KCNQ2 pot, marked with its call; B-score; compound at 10 µM; measured here: initial fluorescence intensity artifact check;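 brightness before thallium and not channel activity; 0 = typical well and far values either way flag optical interference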
# Active calls of the source: *; · = not tested or not shown. This is a subset, so the mix of outcomes need not match the whole.
# The opening 4 entries as a preview:
KCNQ2 pot	KCNQ2 pot baseline	SMILES
0.47	-0.91	CCOC(=O)c1c(NC(=O)CSc2nnnn2-c2ccccc2)sc2c1CCC(C)C2 (stereo not given)
1.3	0.3	O=C(Nc1ccc(N2CCOCC2)cc1)c1cc(F)c(F)cc1Cl
0.46	-0.16	CCCn1cc(CN2CCC(n3nccc3NC(=O)c3ccccc3)CC2)c(C)n1
0.62	0.85	Cc1ccc(-c2ccc(CCC(=O)O)o2)cc1

# The whole of this part, repeating the preview:
KCNQ2 pot	KCNQ2 pot baseline	SMILES
0.47	-0.91	CCOC(=O)c1c(NC(=O)CSc2nnnn2-c2ccccc2)sc2c1CCC(C)C2 (stereo not given)
1.3	0.3	O=C(Nc1ccc(N2CCOCC2)cc1)c1cc(F)c(F)cc1Cl
0.46	-0.16	CCCn1cc(CN2CCC(n3nccc3NC(=O)c3ccccc3)CC2)c(C)n1
0.62	0.85	Cc1ccc(-c2ccc(CCC(=O)O)o2)cc1
1	0.86	O=C(c1cccs1)N(CCO)Cc1cc2cc3c(cc2[nH]c1=O)OCCO3
0.72	-0.01	CCOC(=O)C(=O)N1CCN(CC)CC1
0.17	0.66	O=C(O)CCCCC1SCC2NC(=O)NC21 (stereo not given)
0.08	-0.15	Cc1ccc2cc3c(NC(=O)c4cccnc4)nn(C)c3nc2c1
0.54	-2.2	CSc1ccccc1NC(=O)COC(=O)c1ccc(O)cc1
0.03	-0.61	O=C(CSc1ncc(C(=O)O)n1-c1ccc(F)cc1)NCc1ccc2c(c1)OCO2
0.2	-0.75	Cc1ccc(Sc2ccc(C(=O)N(C)C)cc2[N+](=O)[O-])cc1
0.22	-1.4	Cn1cc(C=O)c2cc(F)ccc21
3.1	-0.01	Cn1nc(-c2ccccc2)cc1NC(=O)Nc1ccccc1F
0.66	-0.01	O=C(NCc1ccccn1)c1cn(Cc2ccccc2)nn1
0.2	-2.9	C=C(C)c1ccc(C(C)(C)NC(=O)N2CCN(C)CC2)cc1
2.5	-0.02	CCC(C)NC(=O)c1cc2cc3ccc(OC)cc3nc2o1 (stereo not given)
2.1	0.09	Cc1ccccc1NC(=O)c1ccc2c(c1)CCN2S(C)(=O)=O
0.2	0.91	NC(=O)Cn1cc(/C=N/NC(=O)c2ccc(Cn3cc(Cl)cn3)o2)c(-c2ccccc2)n1
0.13	0.69	COc1cccc(CNCc2cccc(Br)c2)c1OC
-5.5	·	CCOC(=O)c1cnc2ccc(C)cc2c1Sc1ccc(F)cc1
2.1	-2.1	Cc1cccc(OCC(=O)N2CCC3(CC2)CC(=O)c2ccccc2O3)c1
0.88	0.79	CCN(CC)CCn1c2c(c(SCC(=O)Nc3ccccc3Cl)nc1=O)CCCC2
0.86	1	Cn1c(CNC(=O)c2ccc(Cl)cc2)nnc1SCC(=O)Nc1sc2c(c1C#N)CCCC2
0.37	-0.74	COc1ccc(NC(=O)Nc2cccc3ccccc23)c(OC)c1
0.31	-0.51	O=C(c1nnc(-c2ccncc2)o1)c1ccccc1Cl
1.2	0.02	Clc1ccc(-c2nnc(SCc3nc4ccccc4s3)o2)cc1
1.1	0.49	CC(=O)N1CCc2cc(S(=O)(=O)NCCCOC(C)C)ccc21
0.1	-0.27	CC(OC(=O)CCCC(=O)Nc1ccc(F)cc1)C(=O)c1ccccc1 (stereo not given)
0.1	0.82	CCCCn1c(N)c(N(CCC(C)C)C(=O)CSc2nnc(C)s2)c(=O)[nH]c1=O
1.8	-3.1	COc1ccccc1NC(=O)C1CCC(CNc2c(N3CCCCC3)c(=O)c2=O)CC1 (stereo not given)

# Rewritten with tabs: 3 of the compounds above
Compound	KCNQ2 pot	KCNQ2 pot baseline
COc1ccc(NC(=O)Nc2cccc3ccccc23)c(OC)c1	0.37	-0.74
COc1ccccc1NC(=O)C1CCC(CNc2c(N3CCCCC3)c(=O)c2=O)CC1 (stereo not given)	1.8	-3.1
C=C(C)c1ccc(C(C)(C)NC(=O)N2CCN(C)CC2)cc1	0.2	-2.9

# (cont.)
KCNQ2 pot	KCNQ2 pot baseline	SMILES
0.48	0.71	CCS(=O)(=O)N1CCc2nc(-c3ccccc3)sc2C1
1.1	-1.1	COc1cccc(/C=N/NC(=O)c2cccs2)c1
0.28	1.6	CN(C(=O)c1ccc(C#N)cc1)c1nnc(-c2cnccn2)s1
0.16	0.62	COc1ccc(NC(=O)c2sc(N3CCOCC3)nc2-c2ccccc2)c(OC)c1
0.06	-1.5	COc1ccc(NC(=S)NCc2ccc(S(N)(=O)=O)cc2)cc1OC
0.45	0.85	CN(C)c1oc(-c2ccccc2Cl)nc1C#N
0.85	-0.34	COc1ccccc1NC(=O)CCn1c(=O)sc2ccccc21
1.8	0.42	COc1ccc(NS(=O)(=O)c2ccc(NS(C)(=O)=O)cc2)cc1
0.67	-0.82	O=C(Nc1cccc2ncccc12)c1cc2ccccc2o1
0.93	-1.7	Cc1cccc2c(Cl)cc(=O)[nH]c12
1.8	0.62	Cc1csc(SCC(=O)NC23CC4CC(CC(C4)C2)C3)n1
0.03	0.04	COc1ccc(-c2c(C(F)(F)F)oc3cc(OCC(=O)Nc4ccccc4C(F)(F)F)ccc3c2=O)cc1OC
1.5	0	C=CCn1c(O)c(C=Nc2ccccc2)sc1=S
0.14	-0.05	COc1cc(C(=O)N(Cc2ccccn2)CC2CCCO2)cc(OC)c1OC (stereo not given)
0.51	-0.09	CCOC(=O)C1CCCN(S(=O)(=O)c2cccc3cccnc23)C1 (stereo not given)
0.64	0.47	Cc1ccc(NC(=O)CN(C)C(=O)CSc2n[nH]c(N)n2)cc1
0.07	-1.1	Cc1cccc(C)c1NC(=S)NCCc1ccccn1
0.82	-0.94	COc1ccc(CC(NC(C)=O)C(=O)NC2CCN(C(=O)NCc3ccccc3)CC2)cc1OC (stereo not given)
2.1	0.32	CCOc1ccccc1C(=O)NCC(=O)OCC(=O)c1ccc2c(c1)OCCO2
9*	-1.5*	CC(C)c1nc2sc3c(=O)[nH]c(=S)[nH]c3c2c2c1CCCC2
0.01	-0.1	O=[N+]([O-])c1ccc(NCc2ccc(Cl)cc2)nc1
0.03	0.56	CSc1nnc(-c2sccc2-n2cccc2)o1
0.5	-1.1	Cn1nc([N+](=O)[O-])c(C(C#N)c2nc3ccccc3n2C)c(Cl)c1=O (stereo not given)
0.31	0.26	COc1ccc(C(=O)COC(=O)c2ccc(NC(C)=O)cc2)cc1[N+](=O)[O-]
0.05	0.68	Cc1onc(-c2ccccc2Cl)c1C(=O)Nc1ccc(S(=O)(=O)Nc2nccs2)cc1
0.65	0.01	C=CCNC(=O)C1CCCN(S(C)(=O)=O)C1 (stereo not given)
1.1	-0.54	Nc1nc(-c2ccc3ccccc3c2)cs1
4.6	1.3	O=C(COc1c(Br)cc(Br)c2cccnc12)N1CCCCC1
0.76	-1.6	C=CCc1c(C)nc(SC)nc1Nc1ccc(C)cc1
0.48	-0.48	CCc1ccc(NC(=O)C2CC(=O)Nc3ncnn32)cc1 (stereo not given)

# (cont.)
KCNQ2 pot	KCNQ2 pot baseline	SMILES
0.21	-1.1	Cn1nnnc1SCC1=C(C(=O)O)N2C(=O)C(NC(=O)Cn3nc(C(F)F)cc3C3CC3)C2SC1 (stereo not given)
0.18	-0.94	Brc1cnc2ccccc2c1N1CCCCC1
1.1	-1.7	CC(C)N1CCN(C(=O)c2ccc(OC3CCN(CCc4ccccc4)CC3)cc2)CC1
0.07	-0.64	CN(C)C(=O)C(=O)c1c(-c2ccccc2)cc2ccccn12
1.5	-0.27	Cc1ccc(Cl)cc1NS(=O)(=O)N1CCOCC1
0.22	1.3	Cc1oc(-c2ccc(Cl)cc2)cc1C(=O)/C(C#N)=C/Nc1cccc(OC(F)(F)F)c1
0.06	-0.64	Cc1ccc(C(=O)Nc2nc3ccc(Cl)cc3s2)o1
0.71	-1.4	COc1ccc(C2CC(c3cccs3)=NN2S(C)(=O)=O)cc1 (stereo not given)
0.16	0	O=C(COC(=O)/C=C/c1ccco1)Nc1ncc(Cl)cc1Cl
3.8	-1.3	CCCCCNCc1cccc(Br)c1
0.18	-1.1	COc1ccc(Cl)cc1NC(=O)c1cc(-c2ccccc2O)n[nH]1
2.2	-2.1	CCS(=O)(=O)N1CCN(C2Cc3ccccc3C2)CC1
0.53	0.16	CC(=O)c1cn(-c2ccc([N+](=O)[O-])cc2)c(=O)n(C)c1=O
0.98	0.41	CC(=O)NCC(=O)NC(Cc1ccccc1)C(N)=O (stereo not given)
2.9	-1	Oc1ccccc1C1=NN(c2ccccc2)C(c2ccc(F)cc2)C1 (stereo not given)
0.65	-0.62	CCOC(=O)c1cnc2c(ccc3ccccc32)c1N
2.4	2	Cc1c(C)c2ccc(OCC(=O)Nc3ccccc3C(N)=O)cc2oc1=O
0.03	-0.49	O=C(OC(C(=O)Nc1ccc([N+](=O)[O-])cc1Br)c1ccccc1)c1ccccc1 (stereo not given)
0.64	0.47	Cc1ccc(C(=O)Nn2cnnc2)cc1
0.4	0	CCOCC(=O)Nc1cccc(Br)c1
3.6	0.96	CCc1cccc(CN2CCC(CNC(=O)Nc3ccc(Cl)cc3)CC2)c1
0.89	-0.94	COCCCNC(=O)c1cc(C)nc2ccc(F)cc12
1.2	0.93	COc1ccccc1NC(=O)Nc1cc(C(C)C)ccc1C
0.23	-2.6	O=C(N1CCOCC1)N1CCN(S(=O)(=O)c2cccc([N+](=O)[O-])c2)CC1
2.3	0.12	CC(C)c1ccc(NC(=O)CSc2n[nH]c(=O)n2Cc2ccco2)cc1
1.5	0.82	COc1ccccc1C(C)NC(=O)Cc1ccc(S(=O)(=O)N2CCOCC2)s1 (stereo not given)
0.15	1.7	COc1ccc(OCC(=O)NCCCCCCNC(=O)COc2ccc(OC)cc2)cc1
1.1	1.8	Cc1ccc(S(=O)(=O)[N-]c2nc3ccccc3nc2-n2cc[n+](Cc3ccccc3)c2)cc1
1.4	-0.9	Cn1cc(Br)c(C(=O)Nc2sc3c(c2C(N)=O)CCC3)n1
2.2	-1.7	Cc1cccc(N2CCN(C(=O)c3ccc(CS(=O)(=O)c4ccccc4C)o3)CC2C)c1 (stereo not given)

# Next part.
KCNQ2 pot	KCNQ2 pot baseline	SMILES
0.3	-0.3	O=C(CN1C(=O)c2ccccc2C1=O)NCC(=O)OCC(=O)c1cccc([N+](=O)[O-])c1
0.69	-0.01	CC(C)c1nnc(NC(=O)CC(=O)Nc2ccccc2C(=O)O)s1
1.1	1.7	C=CCN1C(=O)c2ccc(C(=O)N3CCC(C(N)=O)CC3)cc2C1=O
0.03	-2.5	CCOC(=O)c1c(C)[nH]c(C(=O)NNC(=O)c2ccccc2)c1C
0.29	0.51	COc1ccc(N2CCN(C(=S)NCc3ccc(C)cc3)CC2)cc1
0.79	-0.17	COc1ccc(CC(=O)Nc2ccccc2NC(=O)Cc2ccc(OC)cc2)cc1
0.45	1.8	COc1ccc(NC(=O)CSc2nnc(-c3ccco3)n2N)cc1Cl
0.13	-2.1	Cc1cc(NC(=O)CCC(=O)N(c2ccc(F)cc2)C(C(=O)NC2CCCC2)c2ccncc2)no1 (stereo not given)
2.4	0.01	CCC(=O)N1CCc2cc(S(=O)(=O)NCCCN3CCN(Cc4ccccc4)CC3)ccc21
1.8	-0.79	Cc1ccc(-n2ncc3c(SCC(=O)NNC(=O)C(C)C)ncnc32)cc1
0.43	0.95	COCCNC(=O)c1cc2ncc(Br)cn2n1
1.4	-0.73	Cc1c(-c2cccc(NC(=O)c3cccs3)c2)nc2ncccn12
0.54	1.3	N#CC1=C(SCc2ccccc2)NC(=O)CC1c1ccc(O)cc1 (stereo not given)
1.1	-0.26	COc1cc(/C=C2/C(=N)N3C=CSC3=NC2=O)ccc1OCCOc1ccc(NC(C)=O)cc1
0.09	-0.59	CCCOCC1CC2(SC(=Nc3ccc(C)cc3)NC2=O)C(=O)O1 (stereo not given)
0.48	1.2	O=C1CC(SCCc2nc3ccccc3[nH]2)C(=O)N1c1ccc(F)c(Cl)c1 (stereo not given)
0.1	1.2	CC1CSc2nc3sc4c(c3c(=O)n21)CCCC4 (stereo not given)
0.27	-0.1	O=C(COC(=O)c1ccc(NS(=O)(=O)c2ccc3c(c2)OCCO3)cc1)NC1CCS(=O)(=O)C1 (stereo not given)
0.6	0.09	CC(C)c1ccc(NC(=O)CCc2ccccc2)cc1
6.3*	-0.3*	Cc1ccc(Oc2ccccc2NC(=O)CN2C(=O)NC3(CCCC3)C2=O)cc1
0.02	-0.09	CCN(c1cccc(C)c1)S(=O)(=O)c1ccc(-n2cccn2)cc1
0.44	0.66	O=C(O)CCc1ccc(-c2ccc(Cl)cc2)n1CC(=O)O
1.5	0.31	COc1ccc(C)cc1NC(=O)n1ncc2cc(Cl)ccc21
0.58	-1	CSc1nc2ccsc2c(=O)n1-c1ccccn1
2.1	0.73	COc1cc(C(=O)Nc2ccc3c(c2)OCCO3)ccc1OC(F)F
4	-1.3	CC1CCN(C(=S)NC(=O)c2cccs2)CC1
0.05	-0.03	Cc1ccc(N2CN(Cc3cccnc3)CNC2=S)cc1
1.6	0.18	Cc1nnc(NC(=O)CSc2nnc(CNC(=O)c3ccc(F)cc3)o2)s1
0.77	-2.4	COCCCNC(=O)c1cc2cc(Br)ccc2oc1=O
0.52	0.64	CCn1c(SCC(=O)Nc2nccs2)nnc1-c1cc2cccc(OC)c2o1
0.62	-1.5	O=C(Nc1nnc(COc2ccc(F)cc2)s1)Nc1ccccc1F
0.85	0.19	O=C(NC1CCCCC1)C(c1ccco1)N(C(=O)c1csnn1)c1ccccc1 (stereo not given)

# Given with two lines to a compound: part of the list above.
# Screens in order: KCNQ2 pot | KCNQ2 pot baseline
- Cn1cc(C=O)c2cc(F)ccc21
  0.22 | -1.4
- Cn1nc(-c2ccccc2)cc1NC(=O)Nc1ccccc1F
  3.1 | -0.01
- O=C(NCc1ccccn1)c1cn(Cc2ccccc2)nn1
  0.66 | -0.01
- C=C(C)c1ccc(C(C)(C)NC(=O)N2CCN(C)CC2)cc1
  0.2 | -2.9

# Source: PubChem (Johns Hopkins Ion Channel Center)
